Cruzain noTriton – qHTS Assay for Promiscuous and Specific Inhibitors of Cruzain (without detergent) | Cruzipain (Trypanosoma cruzi), P25779 | purified cruzain, Z-FR-AMC fluorescence, no detergent | Potency, µM, for the others: max response, negative = inhibition, actives largely listed as inhibitors | hit rate 2.3% among 200,000;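 further: plate controls were enzyme without inhibitor for no effect and buffer without enzyme for full effect; nearly all actives have a fitted effect of over 40% in size; top concentration of the series not given in the record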
Target sequence (P25779 123-467 limits assumed): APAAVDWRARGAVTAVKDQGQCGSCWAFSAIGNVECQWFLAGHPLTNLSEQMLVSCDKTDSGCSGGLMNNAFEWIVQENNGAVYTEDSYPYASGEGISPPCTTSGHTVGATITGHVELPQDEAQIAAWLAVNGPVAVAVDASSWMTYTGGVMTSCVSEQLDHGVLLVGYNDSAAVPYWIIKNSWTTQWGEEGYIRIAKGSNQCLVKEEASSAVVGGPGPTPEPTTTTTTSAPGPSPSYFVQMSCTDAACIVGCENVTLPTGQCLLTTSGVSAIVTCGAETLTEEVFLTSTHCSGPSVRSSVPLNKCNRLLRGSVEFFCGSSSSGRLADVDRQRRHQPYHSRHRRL
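Detergent-free condition (0.00005% Triton X-100) in acetate buffer pH 5.5 with DTT. 1.5 nM enzyme and compound were pre-mixed 15 min, then 2 uM Z-FR-AMC substrate added; reaction progress from fluorescence change between first and third reads (60 s).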
Cruzain inh Det – qHTS Assay for Promiscuous and Specific Inhibitors of Cruzain (with detergent); purified cruzain, Z-FR-AMC fluorescence, 0.01% Triton; Cruzipain (Trypanosoma cruzi), P25779; Potency, µM, for the others: max response, negative = inhibition, usual class: inhibitors; hit rate 0.43% among 200,000;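 further: plate controls were neutral wells for no effect and buffer without enzyme for full effect; nearly all actives have a fitted effect of over 40% in size; top concentration of the series not given in the record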
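Purified cruzain (1.5 nM final) was preincubated with compounds for 15 min at room temperature in 100 mM sodium acetate pH 5.5, 5 mM DTT, 0.01% Triton X-100. Reaction started with 2 uM Z-FR-AMC; AMC fluorescence change over 60 s gave activity.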
NS1 function inh – qHTS Assay for Inhibitors of Influenza NS1 Protein Function | S. cerevisiae slowed by influenza A NS1, growth recovery by OD600 | Potency, µM (titrated, usually from 46.1 µM), for inactives: top-dose activity, positive = more growth | hit rate 0.4% among 270,000; active means well fitted rising curve with a large enough effect; inconclusive means small, poorly fitted or top-dose-only effect; inactive means no such curve, though single readings can be large or run the other way; further: nearly all actives have a fitted effect of over 50% in size
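Compounds were scored for reversing the slow growth caused by influenza A NS1 in S. cerevisiae, measured by optical density at 600 nm. Assay medium contained 2% galactose at pH 6.0; NS1-free yeast of the same strain were the positive control.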
Lassa entry inh – qHTS for Inhibitors of binding or entry into cells for Lassa Virus | hit rate 1.2% among 300,000 | Lassa virus pseudotype entry inhibition, cell reporter; control for the full effect not named in the record | Potency, µM (series often up to 37.9 µM), for inactives: top-dose activity change, negative = inhibition, actives largely listed as inhibitors; active means well fitted inhibition curve with a large enough effect; inconclusive means small, poorly fitted or top-dose-only effect, or effect the other way; inactive means flat fitted curve, though single readings scatter; tested in HEK293 cells; further: on the % scale 0 is the no-effect control and ±100 the full control effect; nearly all actives have a fitted effect of over 50% in size; luciferase read-out
RE007 growth inh – qHTS Assay for Inhibitors of the HIV-1 protein Vpr; S. pombe RE007 Vpr strain, BacTiter-Glo ATP luminescence, 24 h; control for the full effect not named in the record; Potency, µM (doses to about 92.2 µM), for inactives: at the top dose activity change, negative = less growth; hit rate 0.21% among 360,000; AID 651644, 2012; active = well fitted falling curve with a large enough effect; inconclusive = small, poorly fitted or top-dose-only effect; inactive = no such curve, though single readings can be large or run the other way;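 further: on the % scale 0 is the no-effect control and ±100 the full control effect; nearly all actives have a fitted effect of over 50% in size; the assay follows cell death caused by Vpr and the record does not say whether a fall means rescue or toxicity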
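Fission yeast strain RE007, carrying one chromosomally integrated HIV-1 vpr copy, was seeded at OD 0.01 in PMG+AL medium with 23 nL pinned compound. After 24 h at 30 °C and 99% humidity, viability was read by BacTiter-Glo luminescence.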
2A StopGo – High Throughput Screening for Foot and Mouth Disease Virus Antivirals. human cells with a luciferase reporter of 2A StopGo recoding; control for the full effect not named in the record. Potency, µM (doses to about 57.9 µM), without a hit: at the highest dose signal change, negative = less light. hit rate 1.2% among 410,000. AID 1159524, 2015; active = well fitted falling curve with a large enough effect; inconclusive = small, poorly fitted or top-dose-only effect; inactive = no such curve, though single readings can be large or run the other way; tested in HEK293T cells; further: on the % scale 0 is the no-effect control and ±100 the full control effect; nearly all actives have a fitted effect of over 45% in size; luciferase light after 4 h
MARV entry inh – qHTS for inhibitors of binding or entry into cells for Marburg Virus; hit rate 1.8% among 300,000; Potency, µM (top dose mostly 37.8 µM), without a hit: top-dose activity change, negative = inhibition, hits mostly inhibitors; Marburg virus pseudotyped entry inhibition, cell reporter; control for the full effect not named in the record; about a third of the inactives were read at about 46 µM; AID 540276, 2011; active = well fitted inhibition curve with a large enough effect; inconclusive = small, poorly fitted or top-dose-only effect, or effect the other way; inactive = flat fitted curve, though single readings scatter; tested in HEK293 cells; about a fifth of its hits are not listed in these tables; further: on the % scale 0 is the no-effect control and ±100 the full control effect; luciferase read-out
SARS PLpro yeast – qHTS of Yeast-based Assay for SARS-CoV PLP. S. cerevisiae expressing SARS-CoV PLpro, growth rescue; control for the full effect not named in the record. Potency, µM (doses to about 32.9 µM), without a hit: top-dose activity, positive = growth rescue. hit rate 0.19% among 330,000; active means well fitted rising curve with a large enough effect; inconclusive means small, poorly fitted or top-dose-only effect; inactive means no such curve, though single readings can be large or run the other way; further: 0% is about no effect; nearly all actives have a fitted effect of over 55% in size; growth read by luminescence after 48 h
Numbers without * were called inactive; ? = inconclusive; nt = not tested or not shown; & = joins results of further samples; ! = not active in a repeat; [ ] = remark or other dose. Unless noted, the call rests on the fitted dose curve; in most records, active means well fitted curve in the direction sought with a large enough effect; inconclusive means small, poorly fitted or top-dose-only effect, or another doubt; inactive means no such curve, though single readings can be large; an effect the other way counts as inactive or inconclusive. Potency means the concentration at half of the fitted maximal effect.

SMILES	Cruzain noTriton	Cruzain inh Det	NS1 function inh	Lassa entry inh	RE007 growth inh	2A StopGo	MARV entry inh	SARS PLpro yeast
OC1(c2cccc(C(F)(F)F)c2)CCN(Cc2nnnn2CCc2ccccc2)CC1	?	-7.5%	-11%	-25%	2%	-24%	?	?
Cc1nc(SC2CC(=O)N(c3ccccc3)C2=O)n[nH]1 (stereo not drawn)	nt	nt	-39%	1%	?	3%	0%[46.1 µM]	-5%
O=C(NCCc1csc(-c2ccccc2)n1)c1c(F)cccc1Cl	nt	nt	nt	?	14%	13%	6%[46.1 µM]	-12%
O=C(CN1CCN(c2cccc(Cl)n2)CC1)N1CC(O)CO1 (stereo not drawn)	nt	nt	1%	-9%	-5%	-3%	8%[46.1 µM]	1%
COc1cccc(N2CCN(S(=O)(=O)c3ccc4c(c3)oc(=O)n4C)CC2)c1	nt	nt	-1%	-2%[46.1 µM]	-15%	-10%	3%[46.1 µM]	-2%
OC(CN1CCN(C(c2ccccc2)c2ccccc2)CC1)c1ccccc1 (stereo not drawn)	nt	nt	-2%	nt	-2%	-7%	nt	2%
O=C(NNC(=O)C1C2C=CC(C2)C1C(=O)O)c1cc(Cl)ccc1O (stereo not drawn)	nt	nt	14%	18%[46.1 µM]	2%	-7%	12%[46.1 µM]	0%
Cc1ccc2nc(SCC(=O)N/N=C/c3ccco3)cc(C)c2c1	nt	nt	nt	nt	25%	-10%	?	-1%
O=C(CCCSc1nc2ccccc2c(=O)[nH]1)c1ccccc1	nt	nt	-6%	nt	29%	-4%	nt	1%
CCC1([N+](=O)[O-])COC(C=Cc2ccccc2)OC1 (stereo not drawn)	nt	nt	nt	?	10%	39%[activator]	?	nt
O=S(=O)(NN1CCOCC1)c1ccc(Cl)s1	nt	nt	nt	?	4%	-5%	?	0%
CSc1nc(SCC(=O)O)c2sc3nc(-c4ccccc4)c4c(c3c2n1)CCC4	nt	nt	5%	nt	-8%	-18%	nt	1%
COc1ccc(/C=N/NC(=O)c2ccc(OC)c(OC)c2)cc1COc1c(F)c(F)c(F)c(F)c1F	nt	nt	1%	1%[46.1 µM]	5%	-5%	1%[46.1 µM]	11%
CS(=O)(=O)N(CC(=O)N1CCCCC1)C1CCCCC1	-6%	6.8%	-2%	1%	0%	18%	?	-1%
Cc1oc(C)c(C(=O)O)c1C(=O)O	nt	nt	3%	nt	16%	0%	nt	0%
O=C(c1cccc(Cl)c1)N1CCC(c2nc3c(nnn3Cc3ccc(F)cc3F)c(=O)[nH]2)CC1	?	-7.5%	nt	-23%[46.1 µM]	nt	-23%	-3%[46.1 µM]	nt
O=C(Nc1ccc(S(=O)(=O)N2CCCCC2)cc1)C1CCCO1 (stereo not drawn)	nt	nt	-8%	10%[46.1 µM]	-1%	-10%	4%[46.1 µM]	1%
COc1ccc(C(=O)Nn2c(C)nnc2-n2nc(C)cc2C)cc1OC	-2%	0.2%	10%	1%	2%	nt	12%&12%	?
Cc1cccc(/C=N/NC(=O)Cn2nnnc2N)n1	nt	nt	-1%	3%	11%	-11%	-2%	0%
O=C(NCc1cccs1)c1cnn2cccnc12	-2%	1.1%	-4%	8%	-14%	nt	?	-3%
CCC(=O)Nc1ccc2c(c1)ncn2-c1ccc(OC)cc1	16%	-1.0%	11%	-2%	16%	63%[activator]	?	8%
O=C(Nc1nccs1)C1C2/C=C\CCCCC21 (stereo not drawn)	-9%	-2.5%	-24%	-8%	-1%	?	16%[46.1 µM]	1%
CCCc1nc2c(=O)n(C)c(=O)[nH]c2n1CCC	-10%	2.1%	2%	6%	11%	0%	?	0%
O=C(NCCc1cccc(F)c1)[C@@H]1CSC2c3ccccc3C(=O)N21 (stereo partly drawn)	-13%	3.9%	7%	11%	-9%	-10%	-27%	3%
O=C(Oc1c(Cl)cc(Cl)c2ccccc12)N1CCCC1	-2%	-9.7%	-36%	10%	-8%	-14%	-29%	-1%
O=C(NCCNc1ccc([N+](=O)[O-])cc1)c1cccc(Br)c1	-8%	-3.1%	4%	-1%	-8%	-9%	7%	-10%
Nc1sc2c(c1C(=O)c1ccccc1)CCCC2	-24%	-8.2%	7%	-8%	3%	-10%	-14%	-7%
OCC1(CO)COC2(CCCC2)N1	-5%	3.7%	4%&0%	-6%	-6%	9%	19%&19%	1%&-1%
CCOC(=O)CSc1nc(C)c2cc(C)c(C)cc2n1	nt	nt	-3%	2%	-5%	24%	-14%[46.1 µM]	-2%
CCOC(=O)c1ccc(N2C(=O)c3n[nH]c(-c4ccco4)c3C2c2cccc(O)c2)cc1 (stereo not drawn)	-14%	-17%	nt	?	nt	25µM*	?	nt
Cc1cc2c(sc3c(C)ccc(C)c32)c(C)n1	nt	nt	-2%	18%	-22%	-23%	-20%[14.2 µM]	0%
CCCN1CCC(NC(=O)Nc2ccc(F)cc2F)CC1	-5%	-1.1%	1%	-18%	16%[3.69 µM]	-2%	5%	-2%
Cc1ccc(C2CC(C(F)(F)F)n3nc(C(=O)NCc4c(C)nn(C)c4C)c(Cl)c3N2)cc1 (stereo not drawn)	?	-9.1%	-31%	?	-2%	25µM*	12µM*!	0%
COc1ccc(OC)c(C(C)NC(=S)NC2CCCCC2)c1 (stereo not drawn)	nt	nt	-31%	nt	18%	-11%	nt	7%
O=C(CSc1ccc(F)cc1)NCC1(N2CCOCC2)CCCCC1	nt	nt	nt	15%	0%	-25%	-12%	-2%
COc1ccc(-c2noc(CN(C)Cc3ccccc3)n2)c(OC)c1OC	nt	nt	-14%	nt	6%	31%[activator]	nt	1%
CSC1=N/C(=C\c2ccccc2Cl)C(=O)N1N(C)C	nt	nt	-2%	nt	-13%	-12%	nt	1%
CC1(C)CC(=O)C2=C(C1)OC(/N=C/N1CCCC1)=C(C#N)C2c1ccccc1 (stereo not drawn)	nt	nt	-2%	?	23%	-14%	12%	2%
COc1ccc(NC(=O)c2ccc(-c3ccccc3Cl)o2)cc1	-3%	-5.6%	8%	2%	-7%	54%[activator]	?	3%
COc1ccccc1NC(=O)Cn1c(=O)n(-c2ccc(C)cc2)c(=O)c2ccc(C(=O)NCc3ccco3)cc21	-6%	-0.1%	nt	5%[46.1 µM]	nt	7%	?	nt
Cc1cc2nc(-c3ccc(SCC(=O)N4CCOCC4)nc3)[nH]c2cc1C	?	-10%	2%	?	-6%	-18%	?	-2%
CN1CCc2c(sc3c2C(=O)NC(c2ccc(C(C)(C)C)cc2)N3)C1 (stereo not drawn)	1%	-9.7%	nt	14%[46.1 µM]	nt	-6%	7%[46.1 µM]	nt
Cc1ccc2nc(-c3ccc(Cl)c(NC(=O)COc4ccc(C(C)C)cc4)c3)oc2c1	5%	2.1%	nt	22%[46.1 µM]	nt	59%[activator]	?	nt
COC(=O)CSc1nnc(CNC(=O)c2cc(OC)cc(OC)c2)n1-c1ccc(F)cc1	nt	nt	nt	2%	-3%	-2%	?	-1%
Cc1ccc(C)c(CN2C(=O)c3ccccc3S(=O)c3ccc(C(=O)NCCC4=CCCCC4)cc32)c1 (stereo not drawn)	?	1.1%	nt	?	nt	-28%	?	nt
Cc1nc(-c2ccc(F)cc2)c(CC(=O)N(C)CC(=O)Nc2ccc(F)cc2)s1	nt	nt	nt	15%	-25%	13%	2%	1%
Cc1ccc(S(=O)(=O)N2CCN(S(=O)(=O)c3ccc(C)cc3)C3OCCOC32)cc1 (stereo not drawn)	-4%	-0.2%	1%	2%	3%	11%	11%	1%
Oc1c(CN2CCOCC2)cc(-c2ccccc2)cc1CN1CCOCC1	-2%	1.3%	-25%	-3%	5%	-8%	-7%[46.1 µM]	-3%
Cc1ccc(NS(=O)(=O)c2ccc(N/N=C/c3ccncc3)c([N+](=O)[O-])c2)c(C)c1	-8%	-3.3%	1%	16%	-10%	3%	?	17%
Cc1cc(/C=C2\SC(=Nc3ccccc3)NC2=O)c(C)n1-c1ccc(S(N)(=O)=O)cc1	-23%	1.7%	?	?	9%	?	8.9µM*	-16%
CC(=O)CSc1nc2c(c(=O)[nH]c(=O)n2C)n1CCCc1ccccc1	nt	nt	2%	6%[46.1 µM]	0%	-5%	8%[46.1 µM]	-2%
O=C(O)CC(CC(=O)Nc1ccc(-n2ccc(C(F)(F)F)n2)cc1)c1ccccc1 (stereo not drawn)	nt	nt	?	8%[46.1 µM]	10%	-3%	6%[46.1 µM]	-1%
COc1ccc(N2CCN(S(=O)(=O)c3ccc(-c4coc(C)n4)cc3)CC2)cc1	?	-4.4%	nt	-2%[46.1 µM]	nt	-1%	nt	nt
N#CNC(=Nc1ccccc1)SCc1ccc(C(=O)O)cc1	nt	nt	0%	-22%	4%	-9%	-1%[46.1 µM]	-1%
O=C(Nc1ccc(C(=O)O)cc1)Nc1ccc(F)cc1F	nt	nt	nt	3%[46.1 µM]	9%	0%	-1%[46.1 µM]	2%
Cc1ccccc1-n1c(=O)n(Cc2ccc(C(=O)O)cc2)c(=O)c2[nH]cnc21	nt	nt	-1%	7%	22%	-4%	3%	-3%
CC(C)(C)n1ncc2c(=O)n(CC(=O)N3CCCCCC3)cnc21	-6%	1.3%	4%	8%	-1%	-4%	10%	4%
O=S(=O)(CCC1CCCCN1)c1ccccc1 (stereo not drawn)	nt	nt	9%	17%[46.1 µM]	-2%	-19%	-3%[46.1 µM]	5%
CSCCC(NS(=O)(=O)c1ccc(F)cc1)C(=O)NCc1ccc(S(N)(=O)=O)cc1 (stereo not drawn)	nt	nt	9%	nt	-6%	-11%	nt	3%
Cc1ccc(S(=O)(=O)N2CCOC2CNC(=O)C(=O)NCc2ccc(Cl)cc2)cc1 (stereo not drawn)	nt	nt	5%	?	3%	?	1%	3%
